Vaccinia mCherry: vaccinia inhibition (mCherry reporter) | Vaccinia virus mCherry reporter infection, fluorescence; about a quarter of the inactives have no number | Potency, µM (doses to about 36.5 µM), for inactives: top-dose activity change, negative = inhibition, usual class: inhibitors | 310,000 compounds, 0.63% hits | AID 720579; active = well fitted inhibition curve with a large enough effect; inconclusive = small, poorly fitted or top-dose-only effect; inactive = no such curve, though single readings can be large or run the other way; tested in A549 cells; note: nearly all actives have a fitted effect of over 35% in size; inactives centre near -10
VACV Venus inh: vaccinia inhibition (Venus reporter) | Vaccinia virus Venus reporter expression, fluorescence | Potency, µM (doses to about 36.5 µM), for inactives: at the top dose activity change, negative = inhibition, usual class: inhibitors | 330,000 compounds, 0.46% hits; active means well fitted inhibition curve with a large enough effect; inconclusive means small, poorly fitted or top-dose-only effect; inactive means no such curve, though single readings can be large or run the other way; tested in A549 cells; note: nearly all actives have a fitted effect of over 30% in size; inactives centre near -10
Active calls of the source: *; & = joins results of further samples; [ ] = dose if it differs, or a comment. % is set by controls: 0 for no effect and ±100 for the full control effect; potency is the fitted concentration of half-maximal effect.

The first 11 entries, ahead of the listing:
Results for COc1ccc(-c2noc(C3CCCN(C(=O)c4ccc(C)cc4)C3)n2)cc1 (stereo not drawn) ?
Vaccinia mCherry: inactive; VACV Venus inh: -21%

What do the screens show for `Cc1ccc2nc(SCC(=O)Nc3ccc(C(N)=O)cc3)[nH]c2c1`?
Vaccinia mCherry: -11%; VACV Venus inh: -6%

How did COc1ccc(C(c2nnnn2C2CCCC2)N2CCN(C(=O)c3ccco3)CC2)cc1OC (stereo not drawn) do in these assays?
Vaccinia mCherry: 5%; VACV Venus inh: 0%

Results for CN(Cc1ccccc1)C(=O)CN1C(=O)NC(C)(c2ccc(C(C)(C)C)cc2)C1=O (stereo not drawn) ?
Vaccinia mCherry: inactive; VACV Venus inh: -7%

What do the screens show for `O=C(CSCc1ccccc1)N1CCN(c2ccc(F)cc2)CC1`?
Vaccinia mCherry: inactive; VACV Venus inh: -18%

What do the screens show for `COCCCNC(=O)C[C@H]1C[C@H](C(=O)N(C(C)C)C(C)C)[C@@]2(C)c3[nH]c4ccc(Cl)cc4c3CCN2C1=O`?
Vaccinia mCherry: -24%; VACV Venus inh: inconclusive

What do the screens show for `CN(C)CCCOC(=O)c1ccccc1Cl`?
VACV Venus inh: 11%

Results for O=C1CCC(C(=O)OCC(=O)N2N=C3/C(=C\c4ccccc4)CCCC3C2c2ccccc2)N1 (stereo not drawn) ?
Vaccinia mCherry: -8%; VACV Venus inh: -18%

What do the screens show for `Cc1ccc(NC(=O)COc2ccc3c(c2)CCC3)nc1`?
Vaccinia mCherry: -3%; VACV Venus inh: -16%

How did Cc1cc(C)c2c(ccc3cccc[n+]32)c1 do in these assays?
Vaccinia mCherry: -2%; VACV Venus inh: -16%

What do the screens show for `O=C(Cn1cc2c(n1)CCCCC2)Nc1c(F)c(F)cc(F)c1F`?
Vaccinia mCherry: 2%; VACV Venus inh: -3%

The whole of this part, from the first entry:
Results for COc1ccc(-c2noc(C3CCCN(C(=O)c4ccc(C)cc4)C3)n2)cc1 (stereo not drawn) ?
Vaccinia mCherry: inactive; VACV Venus inh: -21%

What do the screens show for `Cc1ccc2nc(SCC(=O)Nc3ccc(C(N)=O)cc3)[nH]c2c1`?
Vaccinia mCherry: -11%; VACV Venus inh: -6%

How did COc1ccc(C(c2nnnn2C2CCCC2)N2CCN(C(=O)c3ccco3)CC2)cc1OC (stereo not drawn) do in these assays?
Vaccinia mCherry: 5%; VACV Venus inh: 0%

Results for CN(Cc1ccccc1)C(=O)CN1C(=O)NC(C)(c2ccc(C(C)(C)C)cc2)C1=O (stereo not drawn) ?
Vaccinia mCherry: inactive; VACV Venus inh: -7%

What do the screens show for `O=C(CSCc1ccccc1)N1CCN(c2ccc(F)cc2)CC1`?
Vaccinia mCherry: inactive; VACV Venus inh: -18%

What do the screens show for `COCCCNC(=O)C[C@H]1C[C@H](C(=O)N(C(C)C)C(C)C)[C@@]2(C)c3[nH]c4ccc(Cl)cc4c3CCN2C1=O`?
Vaccinia mCherry: -24%; VACV Venus inh: inconclusive

What do the screens show for `CN(C)CCCOC(=O)c1ccccc1Cl`?
VACV Venus inh: 11%

Results for O=C1CCC(C(=O)OCC(=O)N2N=C3/C(=C\c4ccccc4)CCCC3C2c2ccccc2)N1 (stereo not drawn) ?
Vaccinia mCherry: -8%; VACV Venus inh: -18%

What do the screens show for `Cc1ccc(NC(=O)COc2ccc3c(c2)CCC3)nc1`?
Vaccinia mCherry: -3%; VACV Venus inh: -16%

How did Cc1cc(C)c2c(ccc3cccc[n+]32)c1 do in these assays?
Vaccinia mCherry: -2%; VACV Venus inh: -16%

What do the screens show for `O=C(Cn1cc2c(n1)CCCCC2)Nc1c(F)c(F)cc(F)c1F`?
Vaccinia mCherry: 2%; VACV Venus inh: -3%

Results for CCOC(=O)C1(Cc2cccc(F)c2)CCN(C(=O)C2CCOCC2)CC1 ?
Vaccinia mCherry: inactive; VACV Venus inh: -8%

What do the screens show for `Cc1cccc(CC2CC(=O)N(CCc3ccc4c(c3)OCO4)C2=O)c1` (stereo not drawn)?
Vaccinia mCherry: -8%; VACV Venus inh: -6%

Results for COc1cccc(/C=C2\Oc3ccc(O)cc3C2=O)c1O ?
Vaccinia mCherry: -5%; VACV Venus inh: 63%[activator]

How did COc1ccccc1CNC(=O)Cn1ccsc1=N do in these assays?
Vaccinia mCherry: -3%; VACV Venus inh: -5%

How did CC1([N+](=O)[O-])COP(=O)(NCc2cccnc2)OC1 (stereo not drawn) do in these assays?
Vaccinia mCherry: inactive; VACV Venus inh: -9%

Results for CC1(C(=O)NCc2ccccc2)CSCC(=O)N1Cc1cccs1 (stereo not drawn) ?
Vaccinia mCherry: inactive; VACV Venus inh: -7%

How did Cc1ccc(C(=O)Nc2cccc(-c3nc(CNC(=O)c4ccc(F)cc4Cl)c(C)o3)c2)s1 do in these assays?
Vaccinia mCherry: inconclusive; VACV Venus inh: inconclusive

How did C=NCc1cc2c(OC[C@@H](O)CNC(C)(C)C)cccc2[nH]1 do in these assays?
Vaccinia mCherry: -15%; VACV Venus inh: -4%

How did CC1CC=CCC1(CO)CO (stereo not drawn) do in these assays?
Vaccinia mCherry: -10%; VACV Venus inh: -13%

What do the screens show for `Cc1cc(NC(=O)c2ccc(NC(=O)C(C)Oc3ccccc3)cc2)no1` (stereo not drawn)?
Vaccinia mCherry: inactive; VACV Venus inh: 4%

What do the screens show for `O=C(CSc1nc2nc[nH]c2c(=O)[nH]1)NC1CCCCC1`?
VACV Venus inh: -7%

How did CN(C)[C@@H](CO)c1nnc([C@H](CC(=O)O)NC(=O)C2CCNCC2)o1 do in these assays?
Vaccinia mCherry: -19%; VACV Venus inh: -4%

Results for Cc1cc2c(cc3c(SCC(=O)Nc4ccc(Cl)cc4F)nncn32)o1 ?
Vaccinia mCherry: 3%; VACV Venus inh: -10%

How did COc1ccc(OC)c(CN2CCN(C(=O)CN3C(=O)NC4(CCCC4)C3=O)CC2)c1 do in these assays?
Vaccinia mCherry: inactive; VACV Venus inh: -17%

What do the screens show for `Cc1cccc(C)c1OCc1cc(C(=O)N2CCC(c3ccncc3)CC2)no1`?
Vaccinia mCherry: -16%; VACV Venus inh: -20%

Results for Cc1cc(C)c(NC(=O)CSc2nc3ccncc3[nH]2)c(C)c1 ?
Vaccinia mCherry: -11%; VACV Venus inh: -2%&-3%

Results for O=C(COC(=O)CCc1nc2ccccc2s1)Nc1ccc(Cl)cn1 ?
Vaccinia mCherry: -13%; VACV Venus inh: 3%

What do the screens show for `Cc1cc(C)c2c(NC(=O)c3ccccc3Cl)c(C(=O)Nc3ccc(C)c(C)c3)sc2n1`?
Vaccinia mCherry: -7%; VACV Venus inh: -9%

Results for OCC[C@H]1C[C@H](O)[C@@H](O)[C@]2(CCCc3ccccc3O2)O1 ?
Vaccinia mCherry: -28%; VACV Venus inh: 2%

How did CC(=O)Nc1ccc(S(=O)(=O)NNC(=O)c2ccc3c(c2)OCO3)cc1 do in these assays?
Vaccinia mCherry: -15%; VACV Venus inh: -14%

How did Cc1cccc(N2C(=O)C(O)=C(C(=O)c3cccs3)C2c2ccc(Cl)cc2)n1 (stereo not drawn) do in these assays?
Vaccinia mCherry: inactive; VACV Venus inh: -5%

How did Cc1nc2cc(NC(=O)NC3CC3)ccc2n1C do in these assays?
Vaccinia mCherry: -1%; VACV Venus inh: -5%

How did C=CCOc1ccc(/C=C/C(=O)OCC(=O)NCCC2=CCCCC2)cc1 do in these assays?
Vaccinia mCherry: 0%; VACV Venus inh: -15%

Results for COc1cccc(N=C2SC(C(=O)Nc3ccccc3F)CC(=O)N2C)c1 (stereo not drawn) ?
Vaccinia mCherry: -24%; VACV Venus inh: -22%

What do the screens show for `CN(CCNC(=O)C1CC(=O)N(C2CCCC2)C1)Cc1ccccc1` (stereo not drawn)?
Vaccinia mCherry: 1%; VACV Venus inh: 5%

Results for CCCNC(=O)c1ccc(C)c(NC(=O)C2=C(C)OCCS2)c1 ?
Vaccinia mCherry: -2%; VACV Venus inh: -18%

What do the screens show for `O=C(NCc1cccnc1)c1cc(C2CCCCN2C(=O)CCCc2ccccc2)on1` (stereo not drawn)?
Vaccinia mCherry: -5%; VACV Venus inh: -5%

What do the screens show for `Cc1ccc(S(=O)(=O)N2[C@H](CC(=O)Oc3ccccc3)OC[C@@H]2C(C)C)cc1`?
Vaccinia mCherry: -6%; VACV Venus inh: 6%

How did O=C(COc1ccc(S(=O)(=O)N2CCOCC2)cc1)Nc1ccc(Cl)c(C(F)(F)F)c1 do in these assays?
Vaccinia mCherry: inconclusive; VACV Venus inh: inconclusive

What do the screens show for `CC1Cc2ccccc2N1C(=O)c1cnc2sccn2c1=O` (stereo not drawn)?
Vaccinia mCherry: -6%; VACV Venus inh: -8%

Results for CCn1ccc(C(=O)Nc2ccc(Cl)cn2)n1 ?
Vaccinia mCherry: -9%; VACV Venus inh: 1%

How did CC(=O)Cn1c2ccccc2n2nc(CCC(=O)O)c(=O)nc12 do in these assays?
Vaccinia mCherry: -1%; VACV Venus inh: 2%

How did CC(=O)Nc1cccc(C(=O)NNC(=O)c2ccc(-n3cnnn3)cc2)c1 do in these assays?
Vaccinia mCherry: -22%; VACV Venus inh: 5%

Results for C=CCn1c(=O)n(C)c2c(=O)n(C)c(=O)n(C)c21 ?
Vaccinia mCherry: inactive; VACV Venus inh: -18%

Results for O=C(O)COCC(=O)NCc1nc(-c2ccc(C(F)(F)F)cc2)no1 ?
Vaccinia mCherry: inactive; VACV Venus inh: -12%

What do the screens show for `CCOC(=O)C1=C(COC(=O)Cc2ccccc2F)NC(=O)NC1C` (stereo not drawn)?
Vaccinia mCherry: -16%; VACV Venus inh: -6%

How did Cc1nnc(Nc2ccc(S(N)(=O)=O)cc2)c2ccccc12 do in these assays?
Vaccinia mCherry: inactive; VACV Venus inh: -14%

What do the screens show for `Cc1ccc(NC(=O)COc2ccc(-n3cnnn3)cc2)cc1C`?
VACV Venus inh: -14%

What do the screens show for `CC1=C(C(=O)OCc2ccccc2)C(c2ccc(C)o2)C2=C(CCCC2=O)N1` (stereo not drawn)?
Vaccinia mCherry: -11%[1.46 µM]; VACV Venus inh: inconclusive

Results for Cc1cccc(NC(=O)c2cc3c(=O)n4ccccc4nc3n2C)c1C ?
Vaccinia mCherry: inconclusive; VACV Venus inh: inconclusive

How did O=C(Nc1ccnn1C1CCNCC1)c1ccc2c(c1)OCO2 do in these assays?
Vaccinia mCherry: -6%; VACV Venus inh: -23%

Results for CCN(CC)CCOC(=O)c1c(C)oc2ccc(O)cc12 ?
VACV Venus inh: -5%

How did CCc1ccc(S(=O)(=O)c2cn(CC(=O)Nc3ccc(C)cc3)c3ccccc3c2=O)cc1 do in these assays?
Vaccinia mCherry: -2%; VACV Venus inh: -8%

What do the screens show for `CCNc1nc(NCC)n2c(SCC(=O)Nc3ccc(C)c(C)c3)nnc2n1`?
Vaccinia mCherry: 0%; VACV Venus inh: -10%

What do the screens show for `Cc1ccccc1NC(=O)c1c(C)oc2ccc(O)c(CN(C)Cc3ccccc3)c12`?
Vaccinia mCherry: -9%[7.34 µM]; VACV Venus inh: -16%[7.34 µM]

How did CCCCCCCCN1C(=O)[C@H](CC(=O)N2CCN(C(=O)OCC)CC2)C[C@@]2(C(=O)OCC)CCCC=C12 do in these assays?
Vaccinia mCherry: -15%; VACV Venus inh: -12%

What do the screens show for `O=C(OCc1ccccc1)C1CCCN1C(=O)c1cccs1` (stereo not drawn)?
VACV Venus inh: -13%

What do the screens show for `O=C(NCCc1ccccc1)C1CCC(Cn2c(=O)c3ccccc3n(Cc3cccc(Cl)c3)c2=O)CC1` (stereo not drawn)?
Vaccinia mCherry: -24%; VACV Venus inh: -10%

How did Cc1c(C(=O)N2CCCCCC2)nnn1-c1nonc1N do in these assays?
VACV Venus inh: 3%

What do the screens show for `O=C(Cn1cncn1)NCCC(c1ccccc1)c1ccccc1`?
Vaccinia mCherry: inactive; VACV Venus inh: 1%

How did Nc1nonc1C(=O)N/N=C/c1ccc(Br)o1 do in these assays?
Vaccinia mCherry: -12%; VACV Venus inh: -8%

What do the screens show for `COCCNC(=O)c1ccc2c(c1)NC(=O)C(CS(=O)(=O)Cc1ccc(F)cc1Cl)N2` (stereo not drawn)?
Vaccinia mCherry: inactive; VACV Venus inh: -1%

How did O=C(OCc1ccccc1)N1CCC2CC1c1cc(N3CCCCC3)ccc12 (stereo not drawn) do in these assays?
Vaccinia mCherry: inactive; VACV Venus inh: -12%

Results for O=C(O)CCCC(=O)Nc1nncs1 ?
Vaccinia mCherry: inactive; VACV Venus inh: -10%

Results for Cc1ccc(CC(=O)NC2CCN(Cc3ccccc3)CC2)cc1 ?
Vaccinia mCherry: -19%; VACV Venus inh: -14%

What do the screens show for `O=C(CN(C(=O)c1csnn1)c1ccc(F)c(Cl)c1)NCc1ccccc1`?
Vaccinia mCherry: -11%; VACV Venus inh: -9%

How did CCOc1c2ccoc2nc2c(OC)c(OC)ccc12 do in these assays?
Vaccinia mCherry: -13%; VACV Venus inh: -16%

Results for CC(=O)c1c(C)nc(-c2ccccc2)nc1N ?
Vaccinia mCherry: -6%; VACV Venus inh: -14%

What do the screens show for `CC(OC(=O)c1ccncc1)C(=O)Nc1cccc(Cl)c1` (stereo not drawn)?
Vaccinia mCherry: -13%[1.46 µM]; VACV Venus inh: -11%

What do the screens show for `COc1cc(OC)cc(N2CCN(S(=O)(=O)c3ccc(-n4cnnn4)cc3)CC2)c1`?
Vaccinia mCherry: 1%; VACV Venus inh: -7%

What do the screens show for `CCN1C(=O)N(CC)C(O)(c2ccccc2)C1(O)c1ccccc1` (stereo not drawn)?
VACV Venus inh: -9%

How did Cc1ccc2c(c1)c(-c1csc(N)n1)c(C)n2C do in these assays?
Vaccinia mCherry: -6%; VACV Venus inh: 0%

What do the screens show for `CNc1oc(Cc2ccccc2)nc1S(=O)(=O)c1ccc(Cl)cc1`?
Vaccinia mCherry: -18%; VACV Venus inh: 1%

Compound activity as filed in PubChem.
